# StopGo reporter: lowers the luciferase signal of an FMDV 2A StopGo reporter; Potency, µM (series often up to 57.9 µM), inactives show at the highest dose signal change, negative = less light; 410,000 tested, 1.2% active; AID 1159524; human cells with a luciferase reporter of 2A StopGo recoding; control for the full effect not named in the record; active = well fitted falling curve with a large enough effect; inconclusive = small, poorly fitted or top-dose-only effect; inactive = no such curve, though single readings can be large or run the other way; tested in HEK293T cells; also: % is scaled to controls: 0 for no effect and ±100 for the full control effect; nearly all actives have a fitted effect of over 45% in size; luciferase light after 4 h
# LASV entry inh: Lassa virus entry inhibition; Potency, µM (titrated, usually from 37.9 µM), without a hit: at the highest dose activity change, negative = inhibition, actives largely listed as inhibitors; 300,000 tested, 1.2% active; Lassa virus pseudotype entry inhibition, cell reporter; control for the full effect not named in the record; AID 540256; active means well fitted inhibition curve with a large enough effect; inconclusive means small, poorly fitted or top-dose-only effect, or effect the other way; inactive means flat fitted curve, though single readings scatter; tested in HEK293 cells; also: % is scaled to controls: 0 for no effect and ±100 for the full control effect; nearly all actives have a fitted effect of over 50% in size; luciferase read-out
# Marburg entry inh: inhibitors of Marburg virus binding or cell entry | AID 540276 | Potency, µM (highest dose often 37.8 µM), for inactives: at the top dose activity change, negative = inhibition, hits mostly inhibitors | Marburg virus pseudotyped entry inhibition, cell reporter; control for the full effect not named in the record; about a third of the inactives were read at about 46 µM | 300,000 tested, 1.8% active; active = well fitted inhibition curve with a large enough effect; inconclusive = small, poorly fitted or top-dose-only effect, or effect the other way; inactive = flat fitted curve, though single readings scatter; tested in HEK293 cells; about a fifth of its hits are not listed in these tables; also: % is scaled to controls: 0 for no effect and ±100 for the full control effect; luciferase read-out
# RE007 growth inh: less growth of the S. pombe RE007 Vpr strain; Potency, µM (top dose mostly 92.2 µM), for the others: at the top dose activity change, negative = less growth; S. pombe RE007 Vpr strain, BacTiter-Glo ATP luminescence, 24 h; control for the full effect not named in the record; 360,000 tested, 0.21% active; AID 651644; active = well fitted falling curve with a large enough effect; inconclusive = small, poorly fitted or top-dose-only effect; inactive = no such curve, though single readings can be large or run the other way;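 also: % is scaled to controls: 0 for no effect and ±100 for the full control effect; nearly all actives have a fitted effect of over 50% in size; the assay follows cell death caused by Vpr and the record does not say whether a fall means rescue or toxicity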
#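 Fission yeast strain RE007, carrying one chromosomally integrated HIV-1 vpr copy, was seeded at OD 0.01 in PMG+AL medium with 23 nL pinned compound. After 24 h at 30 °C and 99% humidity, viability was read by BacTiter-Glo luminescence.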
# NS1 inh: inhibitors of influenza NS1 protein function; S. cerevisiae slowed by influenza A NS1, growth recovery by OD600; Potency, µM (series often up to 46.1 µM), inactives show at the highest dose activity, positive = more growth; 270,000 tested, 0.4% active; active means well fitted rising curve with a large enough effect; inconclusive means small, poorly fitted or top-dose-only effect; inactive means no such curve, though single readings can be large or run the other way; also: nearly all actives have a fitted effect of over 50% in size
#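 Recovery from NS1-induced slow growth read by OD600 in budding yeast switched to galactose assay medium (pH 6.0, -URA) at 1:100 dilution. Compound 23 nl per well; the matching strain lacking NS1 serves as control.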
# SARS PLP yeast: SARS-CoV PLP inhibition in yeast. S. cerevisiae expressing SARS-CoV PLpro, growth rescue; control for the full effect not named in the record. Potency, µM (series often up to 32.9 µM), for inactives: top-dose activity, positive = growth rescue. 330,000 tested, 0.19% active. AID 485353; active means well fitted rising curve with a large enough effect; inconclusive means small, poorly fitted or top-dose-only effect; inactive means no such curve, though single readings can be large or run the other way; also: 0% is about no effect; nearly all actives have a fitted effect of over 55% in size; growth read by luminescence after 48 h
# Cruzain Triton: blocks cruzain activity in presence of Triton detergent; P25779; purified cruzain, Z-FR-AMC fluorescence, 0.01% Triton; Potency, µM, without a hit: max response, negative = inhibition, actives largely listed as inhibitors; 200,000 tested, 0.43% active; AID 1478;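 also: plate controls were neutral wells for no effect and buffer without enzyme for full effect; nearly all actives have a fitted effect of over 40% in size; top concentration of the series not given in the record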
# Target sequence (P25779 123-467 limits assumed): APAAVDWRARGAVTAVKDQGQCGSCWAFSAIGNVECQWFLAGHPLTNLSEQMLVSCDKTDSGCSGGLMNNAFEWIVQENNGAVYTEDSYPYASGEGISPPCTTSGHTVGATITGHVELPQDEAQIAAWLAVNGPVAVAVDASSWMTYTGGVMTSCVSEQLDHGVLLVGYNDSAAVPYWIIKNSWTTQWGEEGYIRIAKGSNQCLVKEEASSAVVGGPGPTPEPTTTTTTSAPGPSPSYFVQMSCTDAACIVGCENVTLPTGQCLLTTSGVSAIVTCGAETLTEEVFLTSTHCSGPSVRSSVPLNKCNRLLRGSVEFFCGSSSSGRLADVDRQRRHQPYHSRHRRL
#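 Sodium acetate buffer (100 mM, pH 5.5) containing 5 mM DTT and 0.01% Triton X-100 hosted 1.5 nM cruzain and test compound for 15 min at room temperature. Cleavage of 2 uM Z-FR-AMC was then tracked by fluorescence.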
# Cruzain noTriton: blocks cruzain activity in detergent-free assay | AID 1476 | Potency, µM, for the others: max response, negative = inhibition, most hits filed as inhibitors | purified cruzain, Z-FR-AMC fluorescence, no detergent | 200,000 tested, 2.3% active;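 also: plate controls were enzyme without inhibitor for no effect and buffer without enzyme for full effect; nearly all actives have a fitted effect of over 40% in size; top concentration of the series not given in the record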
#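 Detergent-free condition (0.00005% Triton X-100) in acetate buffer pH 5.5 with DTT. 1.5 nM enzyme and compound were pre-mixed 15 min, then 2 uM Z-FR-AMC substrate added; reaction progress from fluorescence change between first and third reads (60 s).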
# An asterisk follows results filed as active; ? = inconclusive; . = not tested or not shown; [ ] = another dose, or the depositor's remark. Unless noted, calls follow the shape of the dose curve; as a rule, active = well fitted curve in the direction sought with a large enough effect; inconclusive = small, poorly fitted or top-dose-only effect, or another doubt; inactive = no such curve, though single readings can be large; an effect the other way counts as inactive or inconclusive. Potency is read from the fitted curve at half-maximal effect.
# Every second line gives: StopGo reporter, LASV entry inh, Marburg entry inh, RE007 growth inh, NS1 inh, SARS PLP yeast, Cruzain Triton, Cruzain noTriton
Cc1ccc(Cn2nnnc2CN2CCC(n3nnc4cc(C)ccc43)CC2)cc1
 : -19%, -29%, -17%, 5%, -30%, -2%, 4.3%, ?
Cc1ccc2c(c1)nnn2C1CCN(CC(=O)N(c2ccccc2)c2ccccc2)CC1
 : -18%, ., ., 4%, -5%, 0%, ., .
Cc1ccc2cc(C)c(SCC(=O)NCc3ccco3)nc2c1
 : -18%, ?, ?, -11%, -12%, -8%, ., .
CC(C)(Oc1ccc(Cl)cc1)C(=O)N1CCC(C(N)=O)CC1
 : -7%, 14%[46.1 µM], 16%[46.1 µM], 26%, -1%, 0%, ., .
O=C(OCc1nc2scc(-c3ccccc3)c2c(=O)[nH]1)c1ccco1
 : -13%, -2%, -6%, 1%, ., 2%, ., .
CCOc1ccc2nc(NCCCO)[nH]c2c1
 : ., 0%, ?, 7%, -14%, -15%, -5.8%, ?
O=C(NCCCc1ccccc1)C(=O)NCC1OCCN1S(=O)(=O)c1ccc(F)cc1 (centres undefined)
 : -22%, -25%, -1%, -7%, 8%, 1%, ., .
CC(C)(C)C1=Nn2c(nnc2C2CCCCC2)SC1
 : 4%, -16%, ?, 11%, -9%, 3%, 4.3%, 16%
CCn1c(C)nc2cc(C(=O)NNC(=O)Nc3ccc(Cl)cc3)ccc21
 : -20%, 21%, 9%[46.1 µM], -1%, 7%, 0%, ., .
C=CCNC(=O)C1CCN(c2cc(C)nc(-c3ccccc3)n2)CC1
 : -1%, -21%[46.1 µM], 3%[46.1 µM], 3%, -2%, 0%, ., .
O=C(CCCCCn1c(=S)[nH]c2ccsc2c1=O)NC1CCCCC1
 : 0%, ., ., 6%, -5%, -3%, ., .
Cc1[nH]nc2c1C(C(C)c1ccccc1)C(C#N)=C(N)O2 (centres undefined)
 : ?, -13%, -13%[46.1 µM], -1%, ., -5%, ., .
CCN(CC(=O)Nc1ccc(OC)cc1)C(=O)Cc1cccs1
 : -2%, 6%, -2%[46.1 µM], 11%, ., -5%, ., .
CCOc1ccc(CNC(=O)c2cnc3sc(N4CCOCC4)nn3c2=O)cc1
 : -9%, 19%[46.1 µM], ., ., ., ., 0.2%, 0%
Cc1cc(-c2ccccc2)oc(=O)c1NC(=O)c1ccccc1
 : 12%, ?, -21%[46.1 µM], 12%, -1%, 0%, ., .
C=C(C)CC(NCc1ccco1)c1ccc(OC)cc1 (centres undefined)
 : -4%, 0%, -3%, -5%, -10%, -4%, 6.2%, -8%
CN=c1scc(-c2cccs2)n1/N=C/c1ccccc1O
 : 4µM*, 1.3µM*, 0.28µM*, -22%, 6%, -45%, -3.6%, -8%
Cc1c(C(C)O)nnn1-c1nonc1N (centres undefined)
 : -8%, ?, 23%, -9%, 0%, 15%, -6.0%, -19%
CCOc1ccc(S(=O)(=O)N/N=C(\C)Cc2ccc(OC)cc2)cc1
 : 35%[activator], ., 11%[46.1 µM], 4%, ., -2%, ., .
O=C(Nc1c(F)cc(F)cc1Br)c1cc(-c2ccc(O)cc2)on1
 : 12%, ., ., -17%, -256%, -18%, -5.1%, -14%
O=C(Nc1ccccc1)Nc1cc(OCC(F)(F)F)cc(OCC(F)(F)F)c1
 : -20%, ?, ?, 1%, 4%, ?, -8.4%, -4%
COc1cc(OC)c(OC)cc1CNC1CCCCCC1
 : -15%, -3%, 9%, -5%, 11%, 0%, 1.1%, 7%
COC(=O)c1sccc1NC(=O)CSc1cc(Cl)ccc1Cl
 : ?, 12%, ., 5%, -25%, -23%, 2.1%, 0%
O=C(Nc1ccccn1)c1sc2cccc(F)c2c1Cl
 : -22%, ., ?, -2%, ., -2%, ., .
CCO/C=C1/C(=O)N(C)C(=O)c2cc(OC)ccc21
 : ?, 2%, 1%, -24%, -1%, -6%, -5.4%, -3%
CCOc1ccc(OCCC(=O)OCC(=O)N2CCN(c3ccc(OC)cc3)CC2)cc1
 : -1%, -13%, 2%[46.1 µM], -15%, ., 3%, ., .
Cc1ccc(OCc2nnc(NC(=O)c3cccnc3)s2)cc1
 : -2%, ., ., -20%, -70%, -2%, ., .
Cc1ccc(CNC(=O)COc2ccc(S(=O)(=O)N3CCCC3)cc2)cc1
 : -9%, -6%[46.1 µM], 8%[46.1 µM], 5%, 4%, 1%, ., .
COc1cccc(NC(=O)c2cnc(SC)nc2)c1
 : -4%, 7%[46.1 µM], ?, -4%, -10%, -3%, ., .
O=P(Oc1ccccc1)(Oc1ccccc1)N1CCN(c2ccc(F)cc2)CC1
 : -25%, ?, 10µM*, 15%, -37%, -3%, ., .
COCCCn1c(SCC(=O)Nc2ccccc2F)nnc1-c1ccoc1C
 : -3%, ., -6%[46.1 µM], 1%, 2%, 3%, ., .
CC(=N\NC(=O)c1ccc([N+](=O)[O-])cc1)/C(=N/O)C(=O)Nc1ccccc1
 : -24%, -15%, ?, -22%, 10%, -5%, ., .
NNc1nc2c(F)cccc2s1
 : 20%, -15%, ?, -29%, -1%, -23%, 3.4%, 14%
Cc1ccc2oc(=O)c3cnn(CC(=O)N4CCc5ccccc5C4)c3c2c1
 : 0%, ., ., -10%, -148%, 5%, -1.1%, -10%
COC(=O)/C=C1/N/C(=N\c2nc(C)cc(C)n2)N(c2ccc(C)c(C)c2)C1=O
 : ?, -25%, -5%[46.1 µM], -3%, -4%, 1%, 0.4%, -8%
N#CC(C(=O)NCCc1ccccc1)c1nc2ccccc2nc1N1CCOCC1 (centres undefined)
 : 0%, 16%, 1%, -1%, 5%, -2%, -2.4%, -4%
CC(=O)N1CCC(C(=O)NC2CC(C)(C)Cc3c2cnn3-c2ccc(F)cc2)CC1 (centres undefined)
 : -16%, 2%, 0%, -1%, 4%, 2%, ., .
Cc1c(C(=O)N(Cc2ccccc2)C(C)C)cnn1-c1ccccc1
 : -15%, ., ., 12%, -31%, -2%, ., .
COc1ccc(NCc2cc3ccc(OC)cc3n(CC(=O)Nc3cccc(OC)c3)c2=O)cc1
 : -11%, -5%[46.1 µM], ., ., ., ., -6.1%, ?
O=C(c1sc2ccccc2c1Cl)N(Cc1ccco1)C1CCS(=O)(=O)C1 (centres undefined)
 : -28%, -6%, -9%, -2%, -8%, 12%, -4.0%, -9%

# Some values from the entries so far.
# Cc1c(C(C)O)nnn1-c1nonc1N (centres undefined) | Cruzain noTriton: -19%
# CCOc1ccc(S(=O)(=O)N/N=C(\C)Cc2ccc(OC)cc2)cc1 | SARS PLP yeast: -2%

# (continued)
# Every second line gives: StopGo reporter, LASV entry inh, Marburg entry inh, RE007 growth inh, NS1 inh, SARS PLP yeast, Cruzain Triton, Cruzain noTriton
COc1ccc(C(=O)Nc2ccccc2-c2nc3ccccc3s2)c(OC)c1
 : -18%, -10%[46.1 µM], ., ., ., ., -2.0%, 0%
Cc1cc(F)ccc1NC(=O)CCn1nc(C)c(S(=O)(=O)N2CCCCC2)c1C
 : -12%, ?, ., ., ., ., -1.3%, -4%
Cc1cc(=O)oc(C)c1C(=O)OC(C(=O)c1ccccc1)c1ccccc1 (centres undefined)
 : -6%, 6%, -4%, 5%, -15%, -24%, -7.0%, -4%
CCOc1ccc(C(=O)N2CCc3ccccc32)cc1
 : 58%[activator], ., ., 0%, -47%, -2%, ., .
Cc1ccc(C)c(N2CCN(CCCNC(=O)CCn3c(=O)c4cccn4c4cccnc43)CC2)c1
 : -14%, ., ., -5%, -4%, -6%, ., .
CC(C)OCCCNC(=O)c1cc(Sc2ccc(F)cc2)nc2ccccc12
 : ?, 1%, ?, 5%, 1%, ?, -4.4%, 5%
Cc1cc(C)nc(N2CCC(C(=O)Nc3ccc4c(c3)OCCO4)CC2)n1
 : -8%, -18%[46.1 µM], -26%[46.1 µM], 7%, ., 0%, ., .
COc1ccc(NS(=O)(=O)c2c(F)cccc2F)cc1S(=O)(=O)N1CCOCC1
 : 37%[activator], 10%, 24%, 22%, ., -3%, ., .
O=C(CC1C(=O)NCCN1Cc1cccc(Oc2ccccc2)c1)NCCc1ccccn1 (centres undefined)
 : -17%, 6.3µM*, ?, 0%, -2%, -1%, ., .
COc1ccc(OC)c(C(=O)N2CCC(C(=O)c3ccc(F)cc3)CC2)c1
 : ?, 4%, 0%, 0%, -2%, 25%, -3.0%, 16%
Clc1ccc2c(c1)C(N1CCNCC1)Cc1ccccc1S2 (centres undefined)
 : ?, ?, ?, 2%, 8%, -21%, -5.2%, -7%
Cn1nc(C(=O)Nc2nc(-c3ccccn3)cs2)c2ccccc2c1=O
 : -16%, -7%, ?, -13%, ., 4%, ., .
Cc1nn(-c2ccccc2)c(C)c1/C=N/NC(=O)c1ccccc1O
 : -6%, 9%, -2%, 3%, -35%, -6%, ., .
CS(=O)(=NS(=O)(=O)c1ccc(Cl)cc1)c1ccccc1 (centres undefined)
 : -1%, ., ., 2%, -2%, 0%, ., .
O=C(c1cc(-c2cccnc2)nc2ccc(Br)cc12)N1CCN(c2ncccn2)CC1
 : -17%, 23%, 3%, 16%, -112%, 7%, -8.9%, ?
CCOC(=O)c1cccc(NC(=O)c2cc3c(=O)n(C)c4ccccc4c3n2C)c1
 : -26%, 6%[46.1 µM], 6%[46.1 µM], ., ., ., 1.0%, 13%
CN(C)/C=N/c1ncc(C(=O)c2ccc(Cl)cc2Cl)s1
 : -12%, -11%, 12%[46.1 µM], 11%, ., -4%, ., .
CCCCOC(=O)Nc1ccccc1C(N)=O
 : 0%, 0%, ?, 0%, 1%, 7%, 3.7%, -6%
O=C(Oc1ccc2c(=O)c(Cl)coc2c1)c1ccncc1
 : -12%, 21%, 26%, 6%, -33%, -2%, 0.9%, -7%
CCCCN(CC)CCNC(=O)c1[nH]c(C)c(C(C)=O)c1C
 : -1%, 22%, -7%, 7%, 6%, 4%, 7.8%, 1%

# Screens as filed in PubChem BioAssay.

# Not a hit list, and some 4.7% of all compounds hit somewhere here.
